HSD17B inhib = HSD17B dehydrogenase inhibition | Potency, µM (titrated, usually from 57.1 µM), for the others: top-dose activity change, negative = inhibition, actives largely listed as inhibitors | 7.6% of 75,000 active | recombinant HSD17B10, NADH fluorescence kinetic; many of its hits are not listed in these tables; active means well fitted inhibition curve with a large enough effect; inconclusive means small, poorly fitted or top-dose-only effect; inactive means no such curve, though single readings can be large or run the other way;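 further: the protocol describes HADH2 (HSD17B10) and not the HSD17B4 of the title; nearly all actives have a fitted effect of over 70% in size; most hits overshoot -100% by far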
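Activity followed as NADH fluorescence increase (ex 360, em 450 nm) every 30 seconds for 4 min, using final 90 uM beta-hydroxybutyryl CoA and 1 mM NAD+. Recombinant His-tagged enzyme, 20 nM, pH 9.0 Tris buffer, 15 min compound preincubation.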
Active calls of the source: *; ? = inconclusive; [ ] = remark or other dose. On the % scale 0 is the no-effect control and ±100 the full control effect; potency means the concentration at half of the fitted maximal effect.

SMILES | HSD17B inhib
Cc1cc(NC(=O)CCCN2C(=O)c3cccnc3C2=O)no1 | -2%
Cc1ccc2c(CC(=O)Nc3c(C)n(C)n(-c4ccccc4)c3=O)coc2c1 | 4%
CCOC(=O)c1nnn(-c2nonc2N)c1CNc1ccc(C)c(Br)c1 | -5%
CC(=O)c1ccc(OCC(O)CN2C(C)(C)CC(O)CC2(C)C)cc1 (stereo unspecified) | -1%
Cc1nc(N2CCN(Cc3ccc4c(c3)OCO4)CC2)c2oc3ccccc3c2n1 | ?
O=c1[nH]c2c(n(C3CCCCC3)c1=O)CCC2 | 6%
CSC1=NCCN1C(=O)c1ccc(S(=O)(=O)N2CCCCC2)cc1 | -9%
COC(=O)c1[nH]c2cc(OC)ccc2c1NC(=O)CCN1CCCCC1 | -9%
CCCc1n[nH]c2c1C(=O)C(C(=O)OC)C(C)(C)C2 (stereo unspecified) | -24%
COc1cccc(-c2cc(C(=O)Nc3cc(C)on3)no2)c1 | ?
Cn1c(SCC(=O)Nc2ccc(F)cc2)nnc1-c1cccnc1 | 7%
COC(=O)c1c(C)[nH]c(C(=O)COC(=O)Cc2ccc3c(c2)OCCO3)c1C | 2%
C[C@@]12CCC3c4ccc(OS(=O)(=O)O)cc4CCC3C1CCC2O (stereo partly specified) | 10%
COc1ccc(C2C(C(N)=O)=C(C)Nc3nc(-c4ccccc4Cl)nn32)c(OC)c1 (stereo unspecified) | -6%
Cn1c(CNc2ccccn2)c(C#N)c2ccccc21 | 2%
O=C(NCc1ccco1)C(c1cccnc1)N(C(=O)Cn1nnc2ccccc21)c1ccccc1 (stereo unspecified) | 3%
COC(=O)[C@@]1(Cc2ccc(F)cc2)[C@H]2c3cc(C(=O)N(C)C)n(Cc4ccc(OC)c(OC)c4)c3C[C@H]2CN1C(=O)c1ccccc1 | -4%
COc1cc(C2C3=C(Nc4ncnn42)c2ccccc2CC3)cc(OC)c1OC (stereo unspecified) | ?
COC(=O)C1=C(C)N=C2SCCC(=O)N2C1c1ccc(C(=O)OC)cc1 (stereo unspecified) | 5%
O=C(Nc1ccc2c(c1)OCO2)N1CCN(S(=O)(=O)c2ccc(Cl)cc2)CC1 | -6%

Overlap with the part before: 7 entries; new compounds follow.
SMILES | HSD17B inhib
COc1ccc(C2C(C(N)=O)=C(C)Nc3nc(-c4ccccc4Cl)nn32)c(OC)c1 (stereo unspecified) | -6%
Cn1c(CNc2ccccn2)c(C#N)c2ccccc21 | 2%
O=C(NCc1ccco1)C(c1cccnc1)N(C(=O)Cn1nnc2ccccc21)c1ccccc1 (stereo unspecified) | 3%
COC(=O)[C@@]1(Cc2ccc(F)cc2)[C@H]2c3cc(C(=O)N(C)C)n(Cc4ccc(OC)c(OC)c4)c3C[C@H]2CN1C(=O)c1ccccc1 | -4%
COc1cc(C2C3=C(Nc4ncnn42)c2ccccc2CC3)cc(OC)c1OC (stereo unspecified) | ?
COC(=O)C1=C(C)N=C2SCCC(=O)N2C1c1ccc(C(=O)OC)cc1 (stereo unspecified) | 5%
O=C(Nc1ccc2c(c1)OCO2)N1CCN(S(=O)(=O)c2ccc(Cl)cc2)CC1 | -6%
COCCN1C(=O)c2oc3ccccc3c(=O)c2C1c1ccc(O)c(OC)c1 (stereo unspecified) | ?
N#Cc1nc(COc2ccc(Cl)cc2Cl)oc1N1CCOCC1 | -6%
CCN(CC)CCCNC(CC(=O)O)C(=O)O (stereo unspecified) | 0%
O=C(NCc1cccnc1)c1cc(-c2ccccc2)on1 | 11%
COc1cccc(-n2nnnc2SCC(=O)c2cc(OC)ccc2OC)c1 | ?
COc1ccc(-c2nnc(SCC(=O)/C(C#N)=C(\C)N)o2)cc1 | -13%
COc1cc(-c2nn3c(Cc4ccccc4)nnc3s2)cc(OC)c1OC | 32µM*
Cc1ccccc1NS(=O)(=O)c1ccc(F)cc1 | -4%
COc1ccc(Nc2nc(N)nc(SCc3nnc(C)s3)n2)cc1 | 5%
COc1cccc(-c2nnc(SCC(=O)Nc3cc(C)ccc3OC)n2N)c1 | 12%
CCOC(=O)c1ccccc1NC(=O)c1cn(CC)c2nc(C)ccc2c1=O | 6%
COCCNC(=O)C(C)OC(=O)c1cc2occc2n1C (stereo unspecified) | 5%
COc1ccc(NC(=O)N2CCCC3(CCN(C(=O)c4cccn4C)CC3)C2)cc1 | -4%
Cc1ccc2nc(N3CCOCC3)c3nncn3c2c1 | -2%
Cc1cc(NC(=O)COn2nnc3ccc(Cl)cc32)no1 | 2%
COC(=O)COc1ccc(S(=O)(=O)Nc2ccccc2C(=O)OC)cc1 | 17%
Cc1ccc(NC(=O)N2CCC(C(=O)NCc3ccccc3)CC2)cc1 | 9%
C=CCn1c(=O)c2ccccc2n2c(SCC(=O)NCc3cccs3)nnc12 | -1%
CCCCC(=O)NCCNc1nc2c(c(=O)n(C)c(=O)n2C)n1Cc1ccc(F)cc1 | 3%
CCOC(=O)c1oc2ccccc2c1NC(=O)c1cc(OC)cc(OC)c1 | ?
N#CC1=C(N)NC(SCC(=O)O)=C(C#N)C12CCCC2 | ?
COc1ccc(-c2nc(NC(=O)c3cc(C(C)(C)C)nn3C)sc2C)cc1 | -26%
C=CCOC(=O)CC(NC(=O)c1ccccc1)c1ccccc1 (stereo unspecified) | 9%
Cc1noc(C)c1C(=O)NC1CCCc2ccccc21 (stereo unspecified) | 7%
O=S(=O)(c1cccc(-c2nc3n(n2)Cc2ccccc2-3)c1)N1CCCC1 | -4%
Cc1nc(N2CCC(C)CC2)c2oc3ccccc3c2n1 | 73%[activator]
CCN1C(=O)C2(C(C#N)=C(N)Oc3n[nH]c(COC)c32)c2ccccc21 (stereo unspecified) | 17%
CCOc1nc(Nc2ccc(-c3nc4ccccc4o3)cc2)nc(N2CCOCC2)n1 | 10µM*
Cc1cc(Cl)ccc1OCC(=O)Oc1c(Cl)c(Cl)c(Cl)c(Cl)c1Cl | -2%[11.4 µM]
Cc1oc2c(O)c(O)ccc2c(=O)c1-c1cnn(-c2ccccc2)c1 | 32µM*
C=CCn1c(C)cc(C(=O)COc2ncnc3sccc23)c1C | -2%
O=C(c1cnccn1)N1CCC[C@@]2(CCN(Cc3ccccc3)C2)C1 | 12%
CCc1ccc2c(c1)CCCN2C(=O)c1ccccc1C(=O)O | 4%
COc1ccc(C(=O)NCc2cn3c(C)csc3n2)cc1OC | 9%
O=C(CCN1C(=O)c2ccccc2S1(=O)=O)N1CCN(c2ccccc2)CC1 | -2%
O=C(O)C1C2C=CC(C2)C1C(=O)Nc1ccc(C(=O)N2CCCCC2)c(Cl)c1 (stereo unspecified) | 16%
CC1(C)CC(=O)C2=C(C1)NC(=O)CC2c1cc(F)ccc1F (stereo unspecified) | 3%
[O-]/[N+](=C\c1ccc(OC(F)F)cc1)c1ccccc1 | -14%
CCOC(=O)CCN(Cc1cccs1)S(=O)(=O)c1ccc(F)cc1 | -9%
O=C(C1CCCN1C(=O)c1cccs1)N1CCc2ccccc21 (stereo unspecified) | 4%
O=C(Cn1nc(C(F)(F)F)c2c1CCCCC2)N1CCOCC1 | -2%
COc1ccc2[nH]c3ccccc3c2c1 | 25µM*
COc1ccc(N2CCN(C(=O)CCNS(=O)(=O)c3ccc(Br)s3)CC2)cc1 | -10%
COc1ccccc1OC[C@H](O)CN1CCN(CC(=O)Nc2c(C)cccc2C)CC1 | -4%
COc1ccc(C)cc1N(CC(N)=O)S(=O)(=O)c1ccc(C)cc1 | 1%
COC(=O)Cc1cnc(NC(=O)C2C3CCC(C3)C2C(=O)O)s1 (stereo unspecified) | -1%
CCOC(=O)C1(Cc2ccccc2)NC(c2ccccc2F)C2C(=O)N(CC)C(=O)C21 (stereo unspecified) | 5%
COc1ccc(-n2c(=O)cc(N3CCN(c4ccccc4)CC3)[nH]c2=O)cc1 | 3%
CCN(CC)CCCn1c(C)cc2c(c1=O)C(c1cc(OC)c(OC)cc1OC)C(C#N)=C(N)O2 (stereo unspecified) | -11%
CCOC(=O)COn1c(=O)c(-c2cccs2)[n+]([O-])c2ccccc21 | 25µM*
Continued:
SMILES | HSD17B inhib
CCc1nc2sc3c(c2c(=O)n1N)CCC3 | 3%
O=C(Cc1c[nH]c2ccccc12)Nc1nc2ccccc2[nH]1 | -9%
N#Cc1sc2nc3c(c(-c4ccco4)c2c1N)CCCC3 | ?
CCCn1cnc2c(SCc3ccc(Cl)cc3)nc(N)nc21 | -4%[11.4 µM]
O=c1c(C(c2nnnn2C2CCCCC2)N2CCCCC2)coc2ccc(Cl)cc12 (stereo unspecified) | -4%
CCCn1c(NCc2cc(C)ccc2O)nc2ccccc21 | 0%
Clc1ccc(OCc2nnc(SCc3nnc(-c4ccccc4)o3)o2)c(Cl)c1 | -11%
Cc1ccc(S(=O)(=O)N2CCN(C(=O)CSc3nnc(C)s3)C2)cc1 | 8%
COC(=O)c1ccccc1NC(=O)C1CCN(C(=O)c2cc(OC)c(OC)c(OC)c2)CC1 | 20µM*
O=C(c1cccc(F)c1)N1CCN(CC2CC3C=CC2C3)CC1 (stereo unspecified) | 3%
Cc1[nH]c2ccc(CNS(=O)(=O)c3ccc(S(=O)(=O)N4CCOCC4)cc3)cc2c1C | -1%
O=C(Nc1ccc2c(c1)OCCO2)C1CCN(S(=O)(=O)c2cccc3nsnc23)CC1 | -1%
CCC(=O)Nc1c2c(nn1-c1ccccc1C)CSC2 | 1%
CCN1C(=S)SC(=O)C1=C1C=C(C)N(CCO)C(C)=C1 | ?
Cc1nn(CC(=O)NC(C)c2ccccc2)c(=O)c2ccccc12 (stereo unspecified) | 16%
COc1cccc([C@H]2Oc3ccc(OC)cc3/C(=N\O[C@@H]3O[C@H](COC(C)=O)[C@H](OC(C)=O)[C@H](OC(C)=O)[C@H]3OC(C)=O)[C@@H]2O)c1 | -1%[11.4 µM]
CCN1C(=O)C(NC(C)=O)c2cc(Br)ccc21 (stereo unspecified) | 8%
O=C(COc1cccc(OC(F)F)c1)Nc1ccc(SC(F)F)cc1 | -4%
O=C(N1CCOCC1)N1CCC(n2nnc3ccccc32)CC1 | -3%
Nc1nc(SCc2ccccc2)c2ncn(Cc3ccccc3)c2n1 | -1%[11.4 µM]
CCOC(=O)C1CCCN(c2c(NCC3CCCN3CC)c(=O)c2=O)C1 (stereo unspecified) | 1%
COC(=O)C(CC(C)C)Oc1ccc2c(C)cc(=O)oc2c1 (stereo unspecified) | 32µM*
COc1ccccc1NC1=NC(c2ccc(Cl)cc2)N=C(N)N1 (stereo unspecified) | 5%
CCOC(=O)N1CCC(NC(=O)c2ccc3c(=O)n4c(nc3c2)CCCC4)CC1 | 15%
O=C(NC1CCCc2ccccc21)C1CCN(S(=O)(=O)c2cccc3nsnc23)CC1 (stereo unspecified) | 16%
Cc1cc2ncn(S(=O)(=O)N3CCCCC3)c2cc1C | -13%
O=C1CCC(C(=O)N(Cc2ccco2)C2(C(=O)NC3CCCC3)CCCCC2)N1 (stereo unspecified) | 0%
O=C(CCC(=O)N1CCc2ccccc21)Nc1ccccc1 | 1%
CC(C)C(=O)Nc1ccc(C(=O)N2CCN(C(=O)c3ccco3)CC2)cc1 | -3%
Cc1nn(-c2ccccc2)c2c1C(O)n1c(nc3ccccc31)S2 (stereo unspecified) | -8%

Filtered by structure, those above containing bromine
SMILES | HSD17B inhib
CCOC(=O)c1nnn(-c2nonc2N)c1CNc1ccc(C)c(Br)c1 | -5%
COc1ccc(N2CCN(C(=O)CCNS(=O)(=O)c3ccc(Br)s3)CC2)cc1 | -10%
CCN1C(=O)C(NC(C)=O)c2cc(Br)ccc21 (stereo unspecified) | 8%

Continuation.
SMILES | HSD17B inhib
COc1cc2c(C(=O)N3CCN(C)CC3)c(C)oc2cc1Br | 9%
CCn1c(=N)n(CC(=O)c2ccco2)c2ccccc21 | -4%
COCCNC(=O)c1ccc(NS(=O)(=O)c2cc(C)ccc2C)cc1 | 5%
COc1cc(NC(=O)c2ccc(Br)o2)ccc1NC(=O)c1ccccc1Cl | ?
NCCN1CCN(CCN)CC1 | 0%
CCOC(=O)N1CCN(C(=O)Cc2ccc(Cl)cc2)CC1 | -5%
COc1cccc(-c2noc(-c3cccnc3)n2)c1 | 0%
O=C(c1cnn2ccccc12)N1CCCc2ccccc21 | -6%
CCCNC(=O)c1cc(-c2ccco2)on1 | -6%
N#CCSc1nnc(N)s1 | 5%
COC(=O)CCC(=O)Nc1ccc(NC(=O)CCC(=O)OC)cc1 | 5%
O=c1oc2ccccc2c2c1ncn2C1CCCCC1 | -4%
COc1cc([C@H]2[C@@H]3CCCC[C@]3(O)CCN2CC(=O)Nc2ccc(C)cc2)ccc1O | 8%
COc1ccc(S(=O)(=O)n2ccnc2)c2cccnc12 | 25µM*
C[N+]1(C)C2CCC1CC(OC(=O)C(O)c1ccccc1)C2 (stereo unspecified) | 3%
O=C(O)Cn1cc2c(n1)CCCCC2 | 9%
CCOC(=O)CNC(=O)CSc1nnc(-c2cccc(C)c2)n1-c1ccc(OC)cc1 | -2%
CN=C1SC(CC(=O)Nc2sc(C)c(C)c2C(=O)OC)C(=O)N1C (stereo unspecified) | -4%
O=C(Nc1cccc(C(=O)N2CCOCC2)c1)NC1CCCCC1 | 9%
CCCCn1c2c(c3ccccc31)CCc1nonc1-2 | 20µM*
C=CCOC(=O)CCP(=O)(CCC(=O)OCC=C)c1ccccc1 | 4%
C=C(C)CSc1nnc(-c2cc(OC)c(OC)c(OC)c2)n1N | -2%
COc1cc(C)nc(OCCNC(=O)COc2ccc(Cl)cc2C)n1 | 4%
CNC(=O)NCCN1CCCC1=O | 9%
CC1(C(=O)N(c2ccccc2)C(C(=O)NC2CCCC2)c2ccccn2)CC(=O)N=C2C=CC=CN21 (stereo unspecified) | 25µM*

Nothing new here: 3 of the compounds above.
SMILES | HSD17B inhib
CCCCn1c2c(c3ccccc31)CCc1nonc1-2 | 20µM*
C=CCOC(=O)CCP(=O)(CCC(=O)OCC=C)c1ccccc1 | 4%
C=C(C)CSc1nnc(-c2cc(OC)c(OC)c(OC)c2)n1N | -2%

Screening data: PubChem, National Center for Advancing Translational Sciences (NCATS)

These rows are one share of the data (hit frequency here may not be typical).
